Screening results: PubChem, National Center for Advancing Translational Sciences (NCATS)
AmpC inh no det: inhibitors of E. coli AmpC beta-lactamase without detergent; P00811; AmpC nitrocefin hydrolysis, absorbance 480 nm, no detergent; potencies from a single point are estimates; Potency, µM (highest dose often 28.7 µM), for the others: at the highest dose activity change, negative = inhibition; hit rate 1.8% among 71,000; AID 585; active = falling curve, for most hits resting on a single point; inconclusive = weak or doubtful change; inactive = flat or rising curve; note: % of control where 0% means no effect; about half of the hits show no inhibition at the top dose; a quarter of the inactives give rising signals
Target sequence (P00811 whole entry, looked up): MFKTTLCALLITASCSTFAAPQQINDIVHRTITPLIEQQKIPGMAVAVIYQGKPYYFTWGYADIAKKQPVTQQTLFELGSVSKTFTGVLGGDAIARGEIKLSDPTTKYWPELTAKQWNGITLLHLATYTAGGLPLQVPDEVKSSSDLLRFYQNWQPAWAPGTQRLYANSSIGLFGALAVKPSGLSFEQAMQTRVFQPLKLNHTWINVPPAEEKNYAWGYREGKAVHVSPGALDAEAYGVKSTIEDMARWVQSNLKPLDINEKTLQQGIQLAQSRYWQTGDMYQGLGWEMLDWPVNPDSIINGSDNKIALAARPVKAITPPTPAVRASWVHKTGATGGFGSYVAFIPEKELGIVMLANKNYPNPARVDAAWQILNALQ
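Enzyme, pH 7.0 phosphate. Compound titrations were pre-incubated with AmpC for 15 min at room temperature before nitrocefin (stock 800 uM) addition; product formation was recorded at 480 nm every 20 s for 4 min.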
Starred values were filed as active, the others as inactive; ? = inconclusive; & = joins results of further samples; [ ] = dose if it differs, or a comment. Potency is the fitted concentration of half-maximal effect.

SMILES | AmpC inh no det
CC(C)(C)c1cc2c(O)c(c1)Cc1cc(C(C)(C)C)cc(c1O)Cc1cc(C(C)(C)C)cc(c1O)Cc1cc(C(C)(C)C)cc(c1O)Cc1cc(C(C)(C)C)cc(c1O)Cc1cc(C(C)(C)C)cc(c1O)Cc1cc(C(C)(C)C)cc(c1O)Cc1cc(C(C)(C)C)cc(c1O)C2 | -7%[5.75 µM]
O=C(CCN1C(=O)C2CC=C(Cl)CC2C1=O)NC1CCCCC1 (stereo unspecified) | 26%
CCOC(=O)CC(=O)CSc1nc2sc(C)cc2c(=O)n1Cc1ccco1 | 13%
COc1cc2c(cc1OC)CN(CC(=O)Nc1cccc(C)c1)CC2 | -3%
O=C(NCCCNCCCNC(=O)c1ccccn1)c1ccccn1 | 1%
CCn1c(=O)n(CC(=O)Nc2cccc(OC)c2)c(=O)c2ccccc21 | 0%
COc1ccccc1CNC(=O)CN(c1ccc(C)cc1)S(=O)(=O)c1c(C)nn(C)c1C | 129%
CCOc1cc(C)c(C(C)C)cc1S(=O)(=O)N1CCN(C)CC1 | 12%
CCc1nnc(NC(=O)CSc2nc3c(c(=O)n2C)SC(C)C3)s1 (stereo unspecified) | 7%
COc1ccc(OC)c(Nc2nc(-c3ccc(O)c(O)c3)cs2)c1 | -22%
COCCCNC(=O)COc1cc(C)c(Cl)c(C)c1 | 59%
Cn1c(=O)c2c(ncn2CC(=O)N2CCc3ccccc3C2)n(C)c1=O | 0%
O=C(NCC1OCCc2ccccc21)c1ccco1 (stereo unspecified) | 1%
CCCCOC(=O)c1ccccc1N | -2%
Cc1nc2ccccc2c2oc(C(=O)N3CCC(N4CCCCC4)CC3)cc12 | 9%

Fetched one by one from the list above, 6 records:
SMILES | AmpC inh no det
O=C(CCN1C(=O)C2CC=C(Cl)CC2C1=O)NC1CCCCC1 (stereo unspecified) | 26%
COc1ccccc1CNC(=O)CN(c1ccc(C)cc1)S(=O)(=O)c1c(C)nn(C)c1C | 129%
COc1cc2c(cc1OC)CN(CC(=O)Nc1cccc(C)c1)CC2 | -3%
O=C(NCC1OCCc2ccccc21)c1ccco1 (stereo unspecified) | 1%
COc1ccc(OC)c(Nc2nc(-c3ccc(O)c(O)c3)cs2)c1 | -22%
CCCCOC(=O)c1ccccc1N | -2%

(cont.)
SMILES | AmpC inh no det
O=C(c1ccco1)N1CCN(S(=O)(=O)c2ccc(C3CCCCC3)cc2)CC1 | 60%
O=S(=O)(c1cccc(-c2nnco2)c1)N1CCCC1 | -9%
CCCNS(=O)(=O)c1cc(Br)cc2c1N(C(=O)CC)CC2 | 0%
Cn1c(=Nc2ccc(N3CCOCC3)cc2)ccc2ccccc21 | -1%
O=C1CCCc2sc3c(c2N1)CCCCC3 | 0%
O=C(CCc1ccccc1)Nc1ncc2c(n1)CCCC2=O | 6%
C1CCC(NC2CCCCC2)CC1 | -10%&1%
O=C(Nc1cc(C(F)(F)F)ccc1Cl)c1cc(C2CC2)on1 | -13%
CCCC(=O)Nc1nnc(-c2cccc(OCC)c2)s1 | -5%
CN(C)S(=O)(=O)c1ccccc1C#N | 8%
Cc1ccc2nc(SCc3nnc(-c4cccs4)o3)[nH]c2c1 | -7%
COC1(OC)N=C(N)C2(C#N)C(c3ccc4c(c3)OCO4)C12C#N (stereo unspecified) | 0%
CCCCOc1ccc(NC(=O)c2cnc(C)cn2)cc1 | 18%
CCN1C(=O)c2cccc3c(NC(=O)C4CCCCC4)ccc1c23 | 72%
CCCn1c(=O)c2ccccc2n2c(SCC(=O)Nc3cc(C)on3)nnc12 | -1%
O=C(O)Cn1c(-c2ccccc2)nc2ccccc21 | -8%
O=C(c1ccco1)N1CCN=C1SCc1cccc(F)c1 | 1%
COC(=O)c1cc(-c2cccc(OC)c2)n[nH]1 | -6%
CC(C)NC(=O)N1CC[C@@]2(CCCN(C(=O)c3ccco3)C2)C1 | 5%
O=C(c1ccncc1)N1CCC2(CC1)CCN(c1ccncc1)CC2 | -3%
CCC/C=C(\CCC)C(NS(=O)(=O)c1cccs1)c1ccc(C(=O)OC)cc1 (stereo unspecified) | -11%
Cc1cccc2cc3c(NC(=O)c4ccccn4)nn(C)c3nc12 | 56%
CCn1c(SCC(=O)NCCOC)nc2sc(C)c(C)c2c1=O | 12%
O=C(NCCc1ccccc1)c1cc(-c2ccc3c(c2)OCO3)on1 | -13%
CN(C(=O)c1ccno1)c1nnc(-c2cnccn2)s1 | -1%
Cc1ccc2c(CN3CCN(S(=O)(=O)c4ccc5c(c4)OCCO5)CC3)cc(=O)oc2c1C | 28%
O=C(CCCc1ccccc1)NCc1cccnc1 | 6%
COc1ccc(C(c2nnnn2CC2CCCO2)N2CCN(c3ccccc3)CC2)cc1 (stereo unspecified) | 90%
Clc1ccccc1-c1cc(NCc2ccccc2)ncn1 | 15%
Cc1cc(C(=O)Nc2sc3c(c2C#N)CCCC3)no1 | -9%
CC(C)(C)NC(=O)C(c1ccco1)N(C(=O)Cn1nnc(-c2ccc(F)cc2)n1)c1cccc(F)c1 (stereo unspecified) | 50%
O=c1[nH]c(N2CCCCC2)nc2c1CCCC2 | -1%
O=C(OC1CCCCC1)c1ccc(NC(=O)c2ccco2)cc1 | 14%
Cc1nc2nc(COc3ccccc3)[nH]n2c(=O)c1Cl | -3%
O=C(Cc1coc2ccc3ccccc3c12)N1CCN(c2ncccn2)CC1 | 64%
CCN(CC)C(=O)COc1ccc(-c2ccccc2)cc1 | 65%
COCc1cc(C)n(CC(=O)Nc2ccccc2OC)c(=O)c1C#N | 8%
CCc1nc2ccccc2n1Cc1cc(=O)n2cc(C)ccc2n1 | 25%
COc1ccc(N2CCCn3c2nc2c3c(=O)n(CCN3CCOCC3)c(=O)n2C)cc1 | 48%
CCc1nc2sc3ccccc3c(=O)c2c(=O)n1Cc1ccco1 | 1%
O=C(NCCN1CCOCC1)c1ccccc1Oc1ccccc1 | 11%
CC(C)(C)n1ncc2c(=O)n(CC(=O)NCc3ccco3)cnc21 | -4%
COc1cc(NC(=O)C2CCCO2)c(OC)cc1NC(=O)c1ccccc1 (stereo unspecified) | 36%
CCOC(=O)c1cc2c(=O)n3cccc(C)c3nc2n(Cc2ccco2)c1=NC(=O)c1cccnc1 | 86%
CCc1cccc(NS(=O)(=O)c2ccc3c(c2)oc(=O)n3C)c1 | -9%

5 entries from above, tab-delimited.
structure	AmpC inh no det
O=C(OC1CCCCC1)c1ccc(NC(=O)c2ccco2)cc1	14%
Cc1nc2nc(COc3ccccc3)[nH]n2c(=O)c1Cl	-3%
O=C(Cc1coc2ccc3ccccc3c12)N1CCN(c2ncccn2)CC1	64%
CCN(CC)C(=O)COc1ccc(-c2ccccc2)cc1	65%
COCc1cc(C)n(CC(=O)Nc2ccccc2OC)c(=O)c1C#N	8%

Additional compounds follow:
SMILES | AmpC inh no det
CCOCCc1nnc(NC(=O)CN2C(=O)c3ccccc3C2=O)s1 | -6%
O=S(=O)(NCC1CCCO1)c1ccc(Br)s1 (stereo unspecified) | -4%
CCC(=O)c1ccc(OCC(=O)O)cc1 | -6%
Cc1ccc(-n2nc(C)c3cc(C(=O)O)sc32)cc1 | -13%
Cc1ccc(-c2ccc(=O)n(CC(=O)N3CCN(c4cccc(C)c4)C(C)C3)n2)cc1 (stereo unspecified) | 139%
Oc1c(Cl)c(Cl)c(Cl)c(Cl)c1Cl | 1%
O=C(O)CC(C(=O)O)c1cn(Cc2ccccc2)c2ccccc12 (stereo unspecified) | -21%
C=CCc1cc(/C=N/n2cnnc2)cc(OCC)c1O | 7%
Cc1noc(/C=C/N(C)C)c1S(=O)(=O)N1CCCC(C(=O)NC(C)c2ccccc2)C1 (stereo unspecified) | 66%
CN(C)c1ncc2nc(-c3ccccc3)c(=O)n(C3CC3)c2n1 | 70%
COc1ccc(-n2nnnc2SCC(N)=O)cc1 | -1%
CC(=O)c1cccc(S(=O)(=O)N2CCC(n3nnc4cc(F)ccc43)CC2)c1 | 26%
CCOc1cc(C(=O)NC)cc(OCC)c1OCC | -6%
Cc1ncc([N+](=O)[O-])n1CCO | -1%
O=C(CSc1ncnc2c1oc1ccccc12)NCc1ccco1 | 21%
CCOC(=O)N1CCN(C2CC(=O)N(c3ccc(F)cc3)C2=O)CC1 (stereo unspecified) | 3%
Cc1ccc2[nH]c(=O)c(CN(CCc3ccccc3)C(c3nnnn3Cc3ccco3)C(C)C)cc2c1 (stereo unspecified) | 5µM*
O=C(c1ccc2nc(N3CCCCC3)sc2c1)N1CCN(Cc2ccc3c(c2)OCO3)CC1 | 135%
COc1ccc(C(=O)NCc2cn3cccc(C)c3n2)cc1OC | 1%
COC1=C[C@H]2C3=C([C@H]2C1=O)[C@H](NC(C)=O)CCc1cc(OC)c(OC)c(OC)c13 | 2%[12.8 µM]
CCC(C)NS(=O)(=O)c1ccc(OCC(=O)NCc2ccc3c(c2)OCO3)cc1 (stereo unspecified) | 5%
C=CCN(C(=O)Cn1c(C(=O)OC)cc2oc(C)cc21)c1ccccc1 | 44%
O=C(O)CC(Cn1cnnn1)c1ccccc1 (stereo unspecified) | -3%
Cc1ccc(-n2c(SCC(=O)NC3CCCCC3)nc3c(c2=O)SCC3)cc1 | 7%
O=C(O)[C@@H](Cc1c[nH]c2ccccc12)C(=O)NO | -4%[5.75 µM]
COc1ccc(S(=O)(=O)NCCSCc2cccs2)cc1 | -20%
O=C1c2ccccc2-c2ncnc3cccc1c23 | -11%
Nc1nc2ccccc2[nH]1 | -15%
Cn1c(SCC(=O)N2CCOCC2)nnc1-c1cccc(NC(=O)c2ccccc2)c1 | 33%
CCc1nnc(NC(=O)CSc2nnc(Cc3ccc(OC)cc3)o2)s1 | 22%
CCc1c(C)sc(NC(=O)c2cc(C)on2)c1C#N | -10%
CC(C)COC(=O)Cc1c(O)c2ccccc2[nH]c1=O | -4%
Cc1ccc(NC(=O)c2ccco2)cc1NC(=O)CSc1nnc(-c2cccs2)n1C | -4%
c1ccc(-c2cc3c(-n4cccc4)ncnc3o2)cc1 | -6%
O=c1c2ccccc2c(C=Nc2ccc(Cl)cn2)c(O)n1-c1cc(Cl)ccc1N1CCOCC1 | 43%
CCC(=O)Nc1cc(C(=O)NCC2CCCN2CC)c(OC)cc1N(C)C (stereo unspecified) | 7%
CCN(CC)S(=O)(=O)c1ccc(C(=O)N2CCN=C2SC)cc1 | 24%
CCCn1c(-c2ccc(F)cc2)nc2c(NCC(C)(C)CN(C)C)nc(C)nc21 | 56%
CC(NC(=O)c1cccs1)c1ccc2c(c1)OCO2 (stereo unspecified) | -10%
CC(C)C(NC(=O)CNC(=O)OC(C)(C)C)C(=O)NCc1ccccc1 (stereo unspecified) | 32%
Cc1csc(NC(=O)C2CCCN(S(=O)(=O)c3cnc[nH]3)C2)n1 (stereo unspecified) | 9%
CC(C)N(Cc1nc(-c2ccccc2)no1)C(=O)COc1ccccc1 | 4µM*[single pt active]
COc1cccc(-c2cc(NCc3ccccc3)ncn2)c1 | 5µM*
CC(C)c1ccc(-c2nc(N3CCOCC3)[nH]c(=O)c2C#N)cc1 | 4%
Cn1cccc1Cc1nnc(SCC(=O)Nc2ccc3c(c2)OCO3)n1-c1ccc(F)cc1 | 97%
COc1ccc(N(CC(=O)N2CCCCC2)S(=O)(=O)c2ccccc2)c(OC)c1 | 70%
O=C(Oc1ccccc1)N1CCC2(CC1)CCN(c1ccccc1)CC2 | 47%
CCS(=O)(=O)Nc1c(C(=O)O)[nH]c2ccccc12 | -18%
O=C(OCC#CCSc1nnc(-c2ccc(Br)cc2)o1)c1ccco1 | -2%
CCOC(=O)c1ccccc1NC(=O)CC(C)CC(=O)O (stereo unspecified) | -7%
CCc1ccc2nc(NC(=O)c3ccc4c(=O)[nH]c(CN5CCOCC5)nc4c3)sc2c1 | 17%
COc1ccc(-c2nc(CCNC(=O)c3ccco3)cs2)cc1OC | 42%
Cc1ccc(S(=O)(=O)Cn2nnnc2C(c2ccc(F)cc2)N2CCCCC2)cc1 (stereo unspecified) | 28%
COc1ccc(NC(=O)N2CC3(CCN(C(=O)c4cc(C(F)(F)F)cc(C(F)(F)F)c4)CC3)C2)cc1 | 130%
N#CCCn1c(=O)c(CCc2ccccc2)nc2cnc(Oc3ccccc3)nc21 | 13%
CCN(CC)c1ccc(/C=N/n2c(C)cc(C)cc2=O)cc1 | 6%
O=C1C(Cl)=C(NCCCN2CCOCC2)C(=O)N1CCc1ccccc1 | 34%
CCCCOC(=O)N1CCOCCOCCN(C(=O)OCCCC)CCOCCOCC1 | 114%
O=C(CCCCCn1c(=S)[nH]c2ccccc2c1=O)N1CCC2(CC1)OCCO2 | 25%
c1ccc(-c2cnnc(SCc3cn4cccnc4n3)n2)cc1 | 11%

Next part
SMILES | AmpC inh no det
c1cncc(CSc2nnc(-c3cccnc3)n2Cc2ccco2)c1 | -8%
C=CCn1c(SCC(=O)NCc2ccco2)nc2sc3c(c2c1=O)CCCCC3 | ?
CC(NC(=O)c1cccs1)C(c1cccs1)N1CCN(Cc2ccccc2)CC1 (stereo unspecified) | 48%
COC(=O)C1=C(CN2CCc3ccccc32)NC(=O)NC1c1cc(C)ccc1C (stereo unspecified) | 8%
COC(=O)C1=C(C)N(C)C(=O)NC1c1cc(Cl)cc(Cl)c1OC (stereo unspecified) | 25%
Cn1c(=O)c(-c2ccc(Cl)cc2)nc2cnc(Oc3ccccc3)nc21 | -16%
c1cc2ccc3cccc4ccc(c1)c2c34 | -1%
COc1ccc(N(CC(=O)NCc2ccccc2OC)S(=O)(=O)c2c(C)nn(C)c2C)cc1 | 109%
O=C(O)CSc1nc2ccccc2o1 | 5%

An excerpt; rates above refer to the full screens.
